PrP UTR inh: inhibition of PrP 5' UTR reporter expression; inhibition, % (concentration not given with the values); cell-based PrP 5' UTR mRNA reporter, plate reader; AID 488862, 2010; hit rate 0.35% among 340,000;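 active = every replicate at 50% or more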;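 also: 0 = median of the neutral control wells; tested in H4 reporter cells; numbers are from one replicate; inactives centre near -14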
Sa RN4220 lethal: growth inhibition of S. aureus RN4220, primary screen, OD600; 16 h; inhibition, % (concentration not given with the values); hit rate 0.33% among 330,000;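 active = z-score of -3 or lower and OD600 up to 0.18 on both plates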;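 also: plate controls were untreated cells for no effect and reference antibiotic for full effect; stock transfer was 100 nL into about 80 µL; one replicate is shown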
BJeLR viability: MLPCN primary cell-based screen for lethality selective to Ras in HRASV12 cells; BJeLR (HRASV12) viability, CellTiter-Glo ATP luminescence, 48 h; reference of the scale not given here; inhibition, % (no concentration beside the values); hit rate 0.17% among 300,000;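 active = replicate mean above 50%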;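 also: 50 nL library stock added to about 25 µL; numbers are from one replicate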
Mtb hypoxia rep: PubChem AID 1159583. M. tuberculosis hypoxia-regulated fluorescent reporter, fluorescence. fluorescence inhibition, % (test concentration not listed). hit rate 0.1% among 300,000;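 active = 35 to 45% if threefold the growth effect, above 45% if 1.5-fold the growth effect; inactive = the rest, general growth blockers included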;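 also: wells of about 50 µL received 100 nL stock; 0% = vehicle wells and 100% = reference inhibitor wells; whole bacteria with a GFP reporter of the hypoxia response; strong numbers were not always called active; many hits fall short of the cut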
Sa ugtP lethal: growth inhibition of ugtP-null S. aureus, primary screen, RN4220 ugtP deletion, OD600; 16 h; some inactives read as strong as hits; growth inhibition, % (no concentration beside the values); hit rate 0.54% among 330,000; AID 1259309, 2017;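 active = z-score under -3 and OD600 up to 0.15 on both plates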;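 also: plate controls were untreated wells for no effect and antibiotic for full effect; wells of about 80 µL received 100 nL stock; the first replicate is given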
Autofluor counter: compound fluorescence in toxin protease inhibitor counterscreen; compound autofluorescence counterscreen, microsphere flow cytometry; hits give high values; hit rate 3.1% among 360,000; fluorescence intensity (test concentration not listed); AID 624483;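 active = at least 3 SD above the mean of all compounds, about 16000 in these data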;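 also: 100 nL of 1 mM stock went into each well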
Mtb hypoxia rep growth: second read-out of Mtb hypoxia rep, no call of its own (marks repeat the call); growth inhibition, %; measured here: M. tuberculosis growth (absorbance);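 0% = vehicle and 100% = reference antibiotic; read after six days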
The depositor's hits bear a star; . = no result given. Not a hit list (roughly 4% active in at least one column).

SMILES	PrP UTR inh	Sa RN4220 lethal	BJeLR viability	Mtb hypoxia rep	Mtb hypoxia rep growth	Sa ugtP lethal	Autofluor counter
CSCC[C@H](NC(=O)OC(C)(C)C)c1nnc(SCc2cccc(F)c2)o1	-10	1.8	-1	.	.	-12	2953
Cn1c(SCC(=O)Nc2cc(Cl)cc(Cl)c2)nnc1-c1ccc2nonc2c1	.	-1.1	8	0	4	-12	.
CC1CCN(c2ccc([N+](=O)[O-])cn2)CC1	-40	10	-2	3	4	3	2428
Cc1ccc(NC(=O)C2CCCC2)cc1Cl	-40	1.1	-3	13	7	-1	4256
S=c1[nH]nc(-c2cccs2)n1C1CCCCC1	.	2.5	-4	18	10	3	3452
Cc1ccc(C(=O)N2CCN(c3ccc([N+](=O)[O-])c(N4CCOCC4)c3)CC2)cc1	-15	5.2	2	6	11	8	2113
CN1CCc2c1nc1ccccc1c2NC(=O)CN1CCCC1	-19	2.0	4	0	-1	4	3955
CN(CCC1CCOCC1)C(=O)CC1C(=O)NCCN1Cc1ccccc1F (stereo not given)	1	-2.8	0	-1	1	-1	4209
COc1ccc2nc(NCCO)[nH]c2c1	-18	-2.2	-8	.	.	-1	2282
CCOC(=O)c1ccccc1NC(=O)COC(=O)C1CCN(S(=O)(=O)c2ccccc2C(=O)OC)CC1	-26	0.1	-3	5	-5	4	5063
Cc1cc(C)cc(NC(=O)CCN2C(=O)c3ccccc3C2=O)c1	-20	0.1	4	-4	-20	-1	2845
O=C(Oc1ccccc1F)c1ccc2c(=O)n3c(nc2c1)CCC3	-7	-1.4	11	6	6	-7	3972
CC(=O)C1=C(C)NC(=O)NC1c1ccccc1OCC(=O)NCCc1ccccc1 (stereo not given)	-34	-1.0	1	10	13	14	9584
O=C(Nc1cc(S(=O)(=O)N2CCCCC2)ccc1N1CCOCC1)c1ccc(F)cc1	-10	2.5	.	-2	3	-1	5991
O=C(Oc1cccc2cccnc12)c1ccco1	-7	0.5	6	15	5	5	3228
CCN1C[C@@H]2[C@@H]3C(=O)N(Cc4ccccc4)C(=O)[C@@H]3[C@](Cc3ccccc3)(C(=O)OC)N2C1=NC	-17	1.6	.	0	6	4	3530
CCCCC1N2CC3([N+](=O)[O-])CN1CC([N+](=O)[O-])(C2)C3(C)C (stereo not given)	-1	3.3	-1	7	0	0	2105
COC(=O)c1cc(C(=O)OCC(=O)NCc2ccc3c(c2)OCO3)cc([N+](=O)[O-])c1	-10	-8.7	10	9	-2	18	6817
CCC(C)N(C(=O)COC(=O)CSc1ccc([N+](=O)[O-])cc1)C1CCS(=O)(=O)C1 (stereo not given)	-29	.	0	.	.	.	5133
CCN(CC)S(=O)(=O)c1cccc(C(=O)Nc2cccc(C)c2)c1	-33	1.4	-7	8	18	3	4047
COCCn1nnnc1C(c1cc2c(C)cc(C)cc2[nH]c1=O)N1CCCCCC1 (stereo not given)	-25	4.0	20	-1	5	-2	8029
Cc1ccc(NS(=O)(=O)c2cccc(C(=O)O)c2)cc1S(=O)(=O)N1CCCCC1	8	0.2	14	5	-7	1	2519
Cc1cccc(NC(=S)NC(=O)c2ccc(Br)o2)c1	-30	-0.9	2	3	-2	24	2219
O=C(NC12CC3CC(CC(C3)C1)C2)c1cncc(O)c1	-24	-4.7	.	-3	3	-12	20010*
COc1ccc(S(=O)(=O)N2CCC3(CC2)OCCN3S(=O)(=O)c2ccccc2)cc1OC	-5	0.8	5	-2	8	0	6018

Continued; the last 2 above are carried over.
SMILES	PrP UTR inh	Sa RN4220 lethal	BJeLR viability	Mtb hypoxia rep	Mtb hypoxia rep growth	Sa ugtP lethal	Autofluor counter
O=C(NC12CC3CC(CC(C3)C1)C2)c1cncc(O)c1	-24	-4.7	.	-3	3	-12	20010*
COc1ccc(S(=O)(=O)N2CCC3(CC2)OCCN3S(=O)(=O)c2ccccc2)cc1OC	-5	0.8	5	-2	8	0	6018
O=c1c2ccc(Cl)cc2nc2n1CC/C2=C\c1cccc(O)c1	-32	0.9	2	4	2	-13	3931
CC(C)CNC(=O)C(=O)NCC(c1ccc2c(c1)OCO2)N1CCOCC1 (stereo not given)	-6	0.9	2	-3	2	2	5984
COc1ccc(Cl)cc1C(=O)OCC(=O)c1ccc[nH]1	4	2.5	.	4	3	1	3915
CCC(=O)Nc1ccc(Cl)c(NC(=S)NC(=O)c2ccco2)c1	-30	-0.4	7	7	1	-20	2599
CC(=NNC(=O)c1cccc(S(=O)(=O)Nc2cccc(Cl)c2)c1)c1cccs1	.	28	.	10	6	4	.
CCCCn1c(N)c(N(CCC(C)C)C(=O)C2CSC3(C)CCC(=O)N23)c(=O)[nH]c1=O (stereo not given)	-20	2.3	-2	0	-2	0	4276
COc1ccc(-c2cc(N3C(=O)Nc4ccccc4N3O)n[nH]2)c(OC)c1	-14	1.8	6	-5	8	9	2159
Cc1[nH]n(-c2ccccc2)c(=O)c1N=Nc1c(Cl)cccc1Cl	-6	5.6	-1	2	5	6	3516
CCc1ccc(S(=O)(=O)N/N=C(/C)c2ccncc2)cc1	-5	.	2	.	.	.	4981
Cc1ccn(S(=O)(=O)c2ccc(C(C)(C)C)cc2)n1	-4	-7.2	-2	.	.	1	4307
COc1ccc(Cl)cc1NC(=O)CSc1nnc(-c2ccncc2)n1CC1CCCO1 (stereo not given)	2	1.9	-1	3	9	7	4106

Profiles from above. Order of screens: PrP UTR inh	Sa RN4220 lethal	BJeLR viability	Mtb hypoxia rep	Mtb hypoxia rep growth	Sa ugtP lethal	Autofluor counter
`COc1ccc2nc(NCCO)[nH]c2c1` across the screens: -18	-2.2	-8	.	.	-1	2282
`O=C(Oc1cccc2cccnc12)c1ccco1` across the screens: -7	0.5	6	15	5	5	3228
`CCN(CC)S(=O)(=O)c1cccc(C(=O)Nc2cccc(C)c2)c1` across the screens: -33	1.4	-7	8	18	3	4047
`CCOC(=O)c1ccccc1NC(=O)COC(=O)C1CCN(S(=O)(=O)c2ccccc2C(=O)OC)CC1` across the screens: -26	0.1	-3	5	-5	4	5063
`O=C(Oc1ccccc1F)c1ccc2c(=O)n3c(nc2c1)CCC3` across the screens: -7	-1.4	11	6	6	-7	3972

Screening results: PubChem, several laboratories
